Screening data (PubChem)
gsp ag: activates gsp, the McCune-Albright syndrome mutation; gsp mutant cells, cAMP HTRF, 30 min; control for the full effect not named in the record; Potency, µM (titrated, usually from 76.9 µM), inactives show at the highest dose activation (cAMP increase), usual class: activators; hit rate 0.13% among 340,000; AID 624287; active = well fitted activation curve with a large enough effect; inconclusive = small, poorly fitted or top-dose-only effect, or another doubt; inactive = no such curve, though single readings can be large or run the other way; cell line not stated here;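 note: phosphodiesterase inhibitor Ro 20-1724 added with compounds to block cAMP breakdown; potency is the fitted concentration of half-maximal effect; nearly all actives have a fitted effect of over 60% in size; about a fifth of the inactives were tested at one dose only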
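Cells stably selected in G418 were plated at 2000/well, grown 16-24 hr, then given compounds in DMSO with the PDE inhibitor […] (300 uM solution added) for 30 min at 37C; cAMP was read by HTRF.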
gsp antagonist: antagonists of gsp mutant (McCune-Albright syndrome) | gsp-mutant cells, cAMP HTRF, 30 min; control for the full effect not named in the record | Potency, µM (doses to about 76.9 µM), inactives show top-dose activity change, negative = inhibition, most hits filed as inhibitors | hit rate 0.4% among 340,000; active = falling curve of any shape with a large fitted effect; inconclusive = falling curve, mostly with a smaller effect; inactive = flat or rising curve; cell line not stated here;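 note: intracellular cAMP measured with PDE inhibitor Ro 20-1724 present during compound exposure; potency is the fitted concentration of half-maximal effect; % is set by controls: 0 for no effect and ±100 for the full control effect; nearly all actives have a fitted effect of over 65% in size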
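HTRF cAMP read-out (cAMP-d2 plus anti-cAMP antibody-K in lysis buffer, 30 min RT). Before lysis, cells are exposed to compounds with […] for 30 min at 37C in DPBS containing Ca/Mg, BSA and Tween 20.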
D2 PAM: potentiates the human D2 dopamine receptor allosterically; DiscoveRx D2 beta-arrestin cells, luminescence, 90 min; 100% = 57 uM dopamine signal; potentiation, % (concentration not given with the values); hit rate 0.23% among 360,000; active = potentiation of 50% or more; inconclusive = 30% to 50%; inactive = 30% or less;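 note: compound concentration not given in the record; tested on top of an EC20 dose of dopamine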
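PathHunter beta-arrestin assay in DiscoveRx D2 cells. Compounds were added with an EC20 of dopamine (50 nM final) for 90 min at 37 deg C. Luminescence was read 1 h after detection reagent, with 57 uM dopamine as the EC100 control.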
CtBP-E1A blk: CtBP/E1A binding inhibition | activity change, % (concentration not given with the values) | hit rate 0.49% among 340,000 | AlphaScreen GST-E1A/His-CtBP binding, 1536-well; hits give low values; control for the full effect not named in the record | AID 651724; in the data active means activity change below about -65%; inconclusive means about -30% to -65%; inactive means above about -30%; note: % is set by controls: 0 for no effect and ±100 for the full control effect
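Steps: dispense buffer (Tris pH 8.0, NaCl 300 mM, TCEP 1 mM, BSA, Tween 20); add 5X protein mix (GST-E1A, His-CtBP, 125 nM each); pin 23 nL compound; 2 h at 37 °C, dark; add 5X beads (50 ug/mL); 1 h; read.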
Six1-Eya2 blk: Six1/Eya2 interaction inhibition; activity change, % (concentration not given with the values); Q15475+O00167; hit rate 0.56% among 360,000; AlphaScreen GST-Six1/His-Eya2 binding, biochemical; hits give low values; control for the full effect not named in the record; in the data active = activity change below about -65%; inconclusive = about -30% to -65%; inactive = above about -30%; note: % is set by controls: 0 for no effect and ±100 for the full control effect
Target sequence (O00167 whole entry, looked up): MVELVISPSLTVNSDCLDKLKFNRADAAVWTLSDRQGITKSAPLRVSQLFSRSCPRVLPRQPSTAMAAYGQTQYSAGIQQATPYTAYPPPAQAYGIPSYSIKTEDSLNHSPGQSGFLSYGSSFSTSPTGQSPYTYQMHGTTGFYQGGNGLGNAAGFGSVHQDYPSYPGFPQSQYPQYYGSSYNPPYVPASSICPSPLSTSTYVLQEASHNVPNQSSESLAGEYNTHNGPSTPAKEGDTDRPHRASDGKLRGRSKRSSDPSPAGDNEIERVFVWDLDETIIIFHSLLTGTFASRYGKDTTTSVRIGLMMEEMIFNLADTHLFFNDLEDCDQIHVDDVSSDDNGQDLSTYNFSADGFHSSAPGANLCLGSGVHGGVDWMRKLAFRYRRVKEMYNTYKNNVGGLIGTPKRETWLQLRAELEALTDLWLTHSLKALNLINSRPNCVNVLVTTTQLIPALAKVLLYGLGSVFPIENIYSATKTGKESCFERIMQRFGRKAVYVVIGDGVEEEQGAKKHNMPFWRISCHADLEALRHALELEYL
Target sequence (Q15475 whole entry, looked up): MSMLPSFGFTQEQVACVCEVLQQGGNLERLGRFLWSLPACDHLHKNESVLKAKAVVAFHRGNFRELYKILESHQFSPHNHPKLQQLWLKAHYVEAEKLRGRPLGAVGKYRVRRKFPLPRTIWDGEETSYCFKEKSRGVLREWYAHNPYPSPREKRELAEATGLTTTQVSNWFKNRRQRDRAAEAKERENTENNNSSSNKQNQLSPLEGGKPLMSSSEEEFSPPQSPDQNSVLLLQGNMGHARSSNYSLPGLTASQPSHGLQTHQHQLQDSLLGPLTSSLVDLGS
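Compounds are tested against tagged Six1 and Eya2 proteins bridged by glutathione donor and nickel acceptor beads; after a one-hour incubation at 37 °C without light, AlphaScreen emission is recorded.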
D2 ag: human D2 receptor agonism in beta-arrestin assay. activation, % (test concentration not listed). P14416. hit rate 0.084% among 360,000. DiscoveRx PathHunter D2 beta-arrestin, luminescence, 90 min; 100% = 57 uM dopamine signal. AID 624465; in the data active = activation above about 40%; inconclusive = about 15% to 40%; inactive = below about 15%; note: compound concentration not given in the record; the text of the record calls up to 30% inactive
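Agonist mode: compounds alone added to overnight-plated D2 PathHunter cells for 90 min at 37 C, with 57 uM final dopamine (EC100) defining full response. Beta-arrestin recruitment detected by chemiluminescent reagent, read after 1 h at ambient temperature.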
* = called active by the depositor; ? = inconclusive; · = no result given; [ ] = dose if it differs, or a comment. The order is random (roughly 1.4% active in at least one column).

#	gsp ag	CtBP-E1A blk	D2 PAM	D2 ag	gsp antagonist	Six1-Eya2 blk	Structure
1	12%	-12	10	-1.2	-27%	-9	CN(C)c1cccc(C(=O)NC2CCCCCC2)c1
2	-46%[inhibitor]	8	2	-1.2	4%	6	CC(=O)NC1=NN(C(C)=O)C(C)(CS(=O)(=O)c2ccc(C)c(C)c2)S1 (configuration not stated)
3	8%[15.4 µM]	-7	?	8.3	-7%	13	COc1ccccc1C/C(N)=N/OC(=O)/C=C/c1ccccc1
4	-3%	1	6	3.8	13%	5	COC(=O)C1=C(C)NC(C)=C(C(=O)OC)C1c1ccc(NC(C)=O)cc1
5	-6%	12	-15	-0.1	7%	0	O=C(CCCc1ccccc1)Nc1cccc2c1CCCC2
6	1%	-9	-2	0.0	-1%	-20	Cc1cccc(Cn2cnc3c(N)c(C)c(C)cc32)c1
7	19%[15.4 µM]	5	-2	-0.3	-23%	-3	CCCn1c(N)c(N(CCOC)C(=O)c2ccc([N+](=O)[O-])cc2Cl)c(=O)[nH]c1=O
8	-46%[inhibitor]	-20	-10	-4.5	-15%	-26	COC(=O)C1=CN(c2cccc(C)c2)C=C(C(=O)OC)C1c1cc(OC)c(O)c([N+](=O)[O-])c1
9	-2%[15.4 µM]	1	-5	-1.2	8%	5	CCOc1ccccc1C(=O)N(C)CC(=O)Nc1ccc(OC)cc1
10	-30%[inhibitor]	0	-13	-2.8	14%	-24	CCOC(=O)Nc1ccc2c(c1)N(C(=O)CCN(C)C)c1ccccc1CC2
11	?	3	-1	0.9	-13%	4	O=S(=O)(Nc1cc(S(=O)(=O)N2CCOCC2)ccc1NCC1CCCO1)c1ccccc1 (configuration not stated)
12	-9%	3	18	0.7	0%	-4	CC(C)(C)c1ccc(C(=O)N2CCN(C(=O)c3ccco3)CC2)cc1
13	20%	0	-6	-5.2	4%	4	CN(C)CCOC(=O)C12CC3CC(CC(C3)C1)C2
14	-33%[inhibitor]	-12	?	2.5	-13%	-29	COc1ccc(N2CCN(C(=O)CN3C(=O)NC(C)(c4ccc5ccccc5c4)C3=O)CC2)cc1 (configuration not stated)
15	-4%	4	-18	-2.9	-13%	-4	COc1ccc(N2C(=O)CC(N3CCN(S(=O)(=O)c4c(C)cc(C)cc4C)CC3)C2=O)cc1 (configuration not stated)
16	7%[15.4 µM]	-1	-1	3.4	9%	7	Cc1cc(C)cc(NC(=O)NC(C)C2CCCO2)c1 (configuration not stated)
17	-32%[inhibitor]	-11	2	6.2	·	-8	COc1ccc(C(C#N)=C2C=C(Cl)C(=NO)C=C2Cl)cc1
18	5%	5	-14	-0.1	-9%	6	CC(=O)Nc1ccc(C(=O)OCc2ccc(Br)cc2)cc1
19	?	·	25	3.0	-2%	9	C=CCn1nc(-c2ccccc2)cc1C(=O)OCC
20	-4%	6	-1	0.5	-6%	1	O=C(O)c1ccc(NCc2cccc(Br)c2)cc1
21	3%	0	19	-1.4	-17%	1	CSc1nnc2c3c4c(sc3c(=O)n(-c3ccccc3)n12)CC(C)(C)OC4
22	0%	-1	9	-3.8	-2%	4	O=C(Cn1cnc2c(nnn2Cc2ccccc2)c1=O)NCc1ccccc1Cl
23	-13%	-8	1	0.3	-16%	-11	COc1ccc(OC)c(NC(=O)C2CCCN(S(=O)(=O)c3cccc4nsnc34)C2)c1 (configuration not stated)
24	-40%[inhibitor]	-12	-9	-6.3	-6%	5	O=C(Nc1nnc(-c2cccs2)o1)c1cccc(Oc2ccccc2)c1
25	-6%	0	-8	-1.4	-3%	-1	COc1ccc(C(CNC(=O)CCNC(=O)c2ccc(Br)cc2)N2CCOCC2)cc1 (configuration not stated)

New compounds follow
#	gsp ag	CtBP-E1A blk	D2 PAM	D2 ag	gsp antagonist	Six1-Eya2 blk	Structure
26	-28%	-12	-6	-2.8	-3%	0	Cc1nnsc1-c1nnc(SCC(=O)c2ccccc2)n1C1CC1
27	-45%[inhibitor]	2	-4	3.1	-6%	1	Cc1ccc(-c2nnn(CC(=O)NC3CC4CCC3C4)n2)cc1 (configuration not stated)
28	-24%	7	-2	0.4	-13%	4	CC(C)CCNC(=O)C1CCN(c2nc3ccccc3o2)CC1
29	·	?	-7	14	·	?	CN(C)c1ccc(CC(=O)N2CCCCC2c2cc(C(=O)Nc3ccccc3Cl)no2)cc1 (configuration not stated)
30	-38%[inhibitor]	13	2	5.6	50µM*	24	CC(=O)Nc1ccc(S(=O)(=O)N2CCC(C(=O)N[C@@H](C)C(=O)NC3CCCC3)CC2)cc1
31	0%[15.4 µM]	3	2	?	-5%	19	Cc1csc(NC(=O)C2CCCCC2)n1
32	0%[15.4 µM]	19	-7	-3.7	-1%	9	CC1(C)CC(=O)c2ccc(O)cc2O1
33	11%	10	-6	-0.4	-16%	0	CCc1ccccc1N(CC(=O)OC)S(C)(=O)=O
34	·	15	-2	-2.3	·	8	CSCC[C@@H](CO)NC(=O)[C@H]1O[C@@H](n2ccc(=O)[nH]c2=O)[C@H](O)[C@@H]1O
35	?	4	-6	-4.8	-9%	-4	Cc1ccc(NC(=O)CN2C(=O)C3CCCCN3C(=O)c3ccccc32)cc1 (configuration not stated)
36	-1%[15.4 µM]	·	-5	4.3	6%	-1	CCc1ccccc1NC(=S)N(CCCN(C)C)Cc1cc2cc3c(cc2[nH]c1=O)OCO3
37	9%[15.4 µM]	0	-9	-2.3	9%	-1	O=C(CC(=O)Nc1ccc(F)cc1)Nc1ccc(F)cc1
38	5%	-15	-16	0.1	-6%	-17	CNc1nc(-c2ccc([N+](=O)[O-])cc2)cs1
39	-4%	7	5	-1.1	3%	6	CCOC(=O)CN1CC23C=CC(O2)C(C(=O)Nc2ccc(F)cc2)C3C1=O (configuration not stated)
40	-10%	0	-5	4.1	7%	-5	COc1ccc(CNc2nc3ccccc3s2)cc1OC
41	?	·	-1	-0.8	-3%	?	Cc1ccc2nc(/C(C#N)=C/c3ccc(-c4ccccc4C(=O)O)o3)[nH]c2c1
42	3%[15.4 µM]	1	-10	-5.2	11%	4	Cc1cccc(C(=O)NCC(=O)OCC(=O)N(C)CC(=O)Nc2ccc(F)cc2)c1
43	14%[15.4 µM]	-10	-4	5.3	-44%	20	Cc1cc(C)n2nc(C(=O)NCc3cccc(C(F)(F)F)c3)nc2n1
44	-57%[inhibitor]	5	-7	0.2	4%	4	COc1cc(S(=O)(=O)NC2CCCCC2C)ccc1F (configuration not stated)
45	-1%[15.4 µM]	0	-5	-1.0	?	-3	O=C(N/N=C/c1cccnc1)c1ccccc1OCc1cccc(Br)c1
46	7%	7	-3	2.1	3%	3	COc1ccccc1N(CC(=O)Nc1c(C)cccc1C)S(C)(=O)=O
47	?	-1	-7	-6.2	6%	4	Cc1csc2ncc(C(=O)Nc3cccc(C(F)(F)F)c3)c(=O)n12
48	-70%[inhibitor]	-1	-3	6.6	-2%	-5	COc1ccc(S(=O)(=O)N2CCCC2C(=O)Nc2ccc(C(C)=O)cc2)cc1 (configuration not stated)
49	2%	0	-23	-1.1	10%	3	Cc1ccccc1NC(=O)NCCc1nc2ccccc2[nH]1
50	-18%	2	-1	0.6	-4%	2	CCCCn1c(SCC(=O)NCc2ccco2)nnc1-c1ccco1

The results go on:
#	gsp ag	CtBP-E1A blk	D2 PAM	D2 ag	gsp antagonist	Six1-Eya2 blk	Structure
51	-73%[inhibitor]	16	-7	-0.5	10%	13	CC1CN(C(=O)c2ccc(N3CCCCC3)c([N+](=O)[O-])c2)CC(C)O1 (configuration not stated)
52	9%[15.4 µM]	8	-2	-0.6	0%	1	Cc1ccc(-c2nnn(CC(=O)N(CCN3CCOCC3)C(C(=O)NC(C)(C)C)c3ccc(C)o3)n2)cc1 (configuration not stated)
53	14%	-3	-9	-0.4	-3%	7	COC(=O)COn1c(SC(C)C)nc2ccccc2c1=O
54	-6%	2	-9	-1.8	10%	3	CCOc1ncccc1C(=O)OCc1nnc(-c2ccccc2)o1
55	-2%	0	-9	-1.9	-7%	-4	COc1cc2[nH]c(=O)n(CCC(=O)N3CCN(Cc4ccc5c(c4)OCO5)CC3)c(=O)c2cc1OC
56	13%	6	-19	-0.9	?	-7	C=CCOc1cccc(/C=N/NC(=O)CN(c2cc(Cl)ccc2OC)S(=O)(=O)c2ccc(C)c([N+](=O)[O-])c2)c1
57	4%	-1	-12	0.9	-8%	-6	Cc1cc(C)cc(NC(=O)COc2coc(CN3CCc4ccccc43)cc2=O)c1
58	-33%[inhibitor]	4	11	2.0	6%	1	COc1ccc(NC(=O)CSc2nc(N3CCCCC3)nc(N3CCCCC3)n2)cc1
59	-27%	·	-17	-3.9	-3%	9	O=C(Nc1ccc(F)c(Cl)c1)c1nsc(Cl)c1Cl
60	13%	-12	-9	-4.9	16%	5	CC(C)C(CCNCc1ccccn1)c1ccc(Cl)cc1 (configuration not stated)
61	-9%	-3	-2	-4.0	·	13	O=C(C[C@@H]1C[C@@H]2c3cc(NS(=O)(=O)c4ccc(F)cc4)ccc3O[C@@H]2[C@@H](CO)O1)NC1CCCCC1
62	0%	-4	-10	-6.2	-61%	0	Cc1cc(C(=O)CSc2nc3ccccc3[nH]2)c(C)n1Cc1ccco1
63	?	-28	-6	7.2	-18%	?	O=C(CSc1nnc2c(n1)[nH]c1ccccc12)Nc1nncs1
64	-24%	-2	-20	-6.3	-15%	-4	CSCc1ccc(C(=O)N2CCC(CCC(=O)N(C)Cc3ccccc3)CC2)o1
65	21%	-9	-10	2.5	10%	-16	Cn1cccc1C(=O)NC(=O)COC(=O)c1ccc(S(C)(=O)=O)c([N+](=O)[O-])c1
66	-19%	5	-5	-4.4	10%	-4	Nc1cc(=O)[nH]n1C1CCCCC1
67	12%	1	-15	-1.9	-32%	-1	Cc1onc(-c2c(F)cccc2Cl)c1C(=O)OCn1nnc2ccccc2c1=O
